High-throughput results from PubChem.
rRNA inh HTS – reduced GFP signal of wild-type E. coli, primary screen, bacterial rRNA inhibitor project, GFP/RFP fluorescence, OD600, single point | E. coli WT GFP vs humanized-ribosome RFP mutants, 24 h; stronger effect = lower value; DMSO median 0, no signal -100 | GFP signal change (wild-type ribosome), % (test concentration not listed) | 1.6% of 350,000 active | AID 720706, 2013;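 active means significant combined selectivity score with lowered wild-type GFP, culture density cut under 30%, mutant RFP and density less affected; inactive means any of these conditions unmet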; further: one replicate is shown; some compounds called inactive have numbers as strong as hits
FGF22 binding – binders of human FGF22 protein, primary screen, FGF22 synaptogenesis inhibitor project, biophysical, thermal shift, single point. Fibroblast growth factor 22 (Homo sapiens), Q9HCT0. recombinant FGF22 thermal shift, SYPRO orange fluorescence; percent of sucrose octasulfate shift, DMSO zero. calls only at 9.99 µM. 1.5% of 340,000 active;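 active means melting point raised past a set limit in the mean and every replicate; three in four hits are not shown here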
Target sequence (Q9HCT0 whole entry, looked up): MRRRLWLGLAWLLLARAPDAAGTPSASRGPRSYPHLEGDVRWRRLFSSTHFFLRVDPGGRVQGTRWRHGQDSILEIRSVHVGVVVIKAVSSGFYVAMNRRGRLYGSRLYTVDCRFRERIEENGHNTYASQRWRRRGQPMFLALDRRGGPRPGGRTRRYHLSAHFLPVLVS
Calb FLC – C. albicans growth inhibition with fluconazole, primary screen, CaCi-2 strain, Alamar Blue fluorescence | growth inhibition, % (concentration not given with the values) | C. albicans CaCi-2 (fluconazole-resistant clinical isolate) + fluconazole, 48 h | 0.57% of 300,000 active | AID 1979, 2009;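 active means most replicates above 75%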;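 further: all wells also contain fluconazole at 8 µg/ml as a sub-toxic cotreatment; 0% = median of DMSO wells and 100% = median of geldanamycin control wells; wells of about 8 µL received 7.5 nL stock; the first replicate is given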
T cruzi repl – inhibitors of intracellular T. cruzi growth, primary screen, luminescence, NIH3T3 host cells; 1.4% of 300,000 active; T. cruzi beta-gal in NIH3T3, 90 h; inhibition, % (concentration not given with the values);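 active means mean inhibition across valid replicates above about 55%, limit read from the data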;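 further: signal also drops with host cell toxicity which is not excluded here; 0% = plate median of DMSO wells and 100% = zero luminescence signal; higher percent means less beta-gal luminescence so fewer parasites; stock transfer was 50 nL into about 50 µL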
Beta apoptosis – inhibitors of cytokine-induced beta cell apoptosis, primary screen, luminescence | 0.8% of 300,000 active | INS-1E cytokine-induced death, ATP luminescence, 48 h; percent of positive-control rescue, neutral wells zero | protection from apoptosis, % (no concentration beside the values);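 active means all replicates at 75% or more, or half of them and the mean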;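 further: 0% = cytokine-treated negative control wells and 100% = positive control rescue; higher means more ATP so stronger rescue from cytokine killing; wells of about 40 µL received 100 nL stock; the first replicate is given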
RanGTP-Impb inh – inhibitors of RanGTP-importin-beta interaction, primary screen, biochemical, FRET, CFP-Ran, YFP-importin-beta, homogeneous. Ran GTPase (GTP-bound) - importin-beta complex. cell-free CFP-Ran/YFP-importin-beta FRET ratio. inhibition, % (no concentration beside the values). 1.1% of 300,000 active;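 active means most replicates above 15%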;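 further: 0% = DMSO wells and 100% = Ran loaded with GDP instead of GTP; wells of about 40 µL received 100 nL stock; the first replicate is given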
MLL AF4-AF9 inh – inhibitors of AF4 peptide binding to AF9, primary screen, biochemical, AlphaScreen, biotin-AF4 peptide, FLAG-AF9, single point; Protein AF-9 (Homo sapiens), P42568; inhibition, % at 10 µM; 0.47% of 350,000 active; AID 651704, 2012;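 active means every replicate reaching a set inhibition limit, whatever the replicate mean, cut at about 25% in these data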;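 further: 0% = plate neutral control median and 100% = total signal loss; the record names both 10 and 1 µM as test concentration; the first replicate is given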
Target sequence (P42568 whole entry, looked up): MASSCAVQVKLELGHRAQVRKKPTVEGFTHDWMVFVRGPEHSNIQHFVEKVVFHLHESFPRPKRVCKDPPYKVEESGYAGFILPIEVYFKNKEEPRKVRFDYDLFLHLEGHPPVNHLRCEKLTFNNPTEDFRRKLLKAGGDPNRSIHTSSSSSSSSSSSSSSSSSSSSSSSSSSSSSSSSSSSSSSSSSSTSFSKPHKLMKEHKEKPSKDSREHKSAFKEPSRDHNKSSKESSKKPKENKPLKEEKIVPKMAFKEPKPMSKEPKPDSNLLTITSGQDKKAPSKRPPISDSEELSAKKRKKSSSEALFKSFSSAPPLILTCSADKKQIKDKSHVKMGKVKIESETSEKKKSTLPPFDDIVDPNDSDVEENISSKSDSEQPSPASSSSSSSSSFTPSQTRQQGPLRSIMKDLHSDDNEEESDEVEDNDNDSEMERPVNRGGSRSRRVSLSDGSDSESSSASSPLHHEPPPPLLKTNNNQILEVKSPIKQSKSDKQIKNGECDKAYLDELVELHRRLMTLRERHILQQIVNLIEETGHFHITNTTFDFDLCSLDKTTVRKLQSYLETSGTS
ALR inh – inhibitors of human ALR sulfhydryl oxidase, primary screen, biochemical, H2O2 detection, HRP-luminol luminescence, single point. 3.8% of 290,000 active. inhibition, % (concentration not given with the values). purified ALR, DTT oxidation. AID 485317, 2010;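 active means mean and each replicate at 75% or more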;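 further: stock transfer was 7.5 nL into about 7.5 µL; 0% = neutral wells and 100% = wells with inactivated enzyme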
Target sequence (P55789 whole entry, looked up): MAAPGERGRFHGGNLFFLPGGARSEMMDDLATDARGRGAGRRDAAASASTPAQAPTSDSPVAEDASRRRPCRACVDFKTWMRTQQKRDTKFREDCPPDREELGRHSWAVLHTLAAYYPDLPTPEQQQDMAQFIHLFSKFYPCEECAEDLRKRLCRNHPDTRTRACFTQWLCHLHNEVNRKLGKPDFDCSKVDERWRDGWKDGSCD
rRNA inh HTS OD600 – recorded beside rRNA inh HTS, whose call it bears; OD600 change, %; measured here: OD600 growth;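 optical density of the mix in the first replicate; 0 = DMSO median and -100 = no signal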
rRNA inh HTS RFP – further read-out of rRNA inh HTS, marked with its call; RFP signal change, %; measured here: RFP humanized mutant strains;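 first replicate; 0 = DMSO median and -100 = no signal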
Starred values were filed as active, the others as inactive; i = inactive; . = no result given. Only part of the results is shown, so the mix of outcomes need not match the whole.

Each structure is followed by: rRNA inh HTS	rRNA inh HTS OD600	rRNA inh HTS RFP	FGF22 binding	Calb FLC	T cruzi repl	Beta apoptosis	RanGTP-Impb inh	MLL AF4-AF9 inh	ALR inh
Cc1cccc(Cc2nnc(NC(=O)c3cccc(S(=O)(=O)N4CCOCC4)c3)s2)c1
→ .	.	.	.	0	-8	-1	-1.3	.	-7
Cn1ccc(C(=O)NC(=S)N2CCSCC2)n1
→ 10	14	2.8	i	17	-13	-4	0.1	-9.4	-2
COCC1CCN(Cc2nc(-c3ccc4c(c3)OCO4)no2)C1 (stereo not given)
→ 4	-13	-2.3	i	-7	-5	3	-0.6	1.1	-7
CSC1=C(C#N)C(c2cccc(Br)c2)CC(=O)N1 (stereo not given)
→ .	.	.	.	13	-9	-8	-1.2	.	-6
C/C(O)=c1/ccc2cccc3nc(C)nc1c23
→ .	.	.	.	6	-1	.	54*	.	71
c1ccc(CSc2nnc(-c3ccncc3)o2)cc1
→ .	.	.	.	-2	12	-21	-0.7	.	-16
O=C(Nc1nncs1)c1ccc(N2C(=O)C3C4C=CC(C4)C3C2=O)cc1 (stereo not given)
→ .	.	.	.	-1	-8	5	3.5	.	-15
O=C(COc1ccc(Cl)cc1)N1CCN(c2ccc([N+](=O)[O-])c(N3CCOCC3)c2)CC1
→ -17	-16	8.1	i	34	16	12	0.7	-48	-1
Cc1cc(C)c(OCCCCCNCCO)c(C)c1
→ 7	2	-5.3	.	-21	20	-6	-3.2	-21	5
COc1ccc(CCN2C(=O)C3C4C=CC(C3C2=O)C2C(=O)N(CCc3ccc(OC)c(OC)c3)C(=O)C42)cc1OC (stereo not given)
→ 4	0	-4.6	i	-15	-10	10	-0.6	-3.6	-2
CCOC(=O)C1=C(c2ccccc2)OC(N)=C(C#N)C1C(C)C (stereo not given)
→ .	.	.	.	4	-8	-4	2.9	.	-25
O=C(CSc1n[nH]c(-c2ccco2)n1)Nc1ccccc1Cl
→ -1	0	3.8	i	-1	0	-4	-4.9	0.1	21
CCN(CC)CCNCC(=O)Nc1ccc(Oc2ccccc2)cc1
→ 1	0	12	i	0	53	-5	0.5	7.1	-6
CN(C)CCCNC(=O)CC(c1ccccc1)c1ccccc1O (stereo not given)
→ .	.	.	.	-3	-7	-4	-2.2	.	.
O=S(=O)(c1ccc(SCc2ccccc2)nc1)N1CCCC1
→ -26	-26	-4.9	i	.	.	6	.	-1.3	-21
CCOC(=O)Nc1nnc(-c2ccc(OC)cc2)s1
→ .	.	.	.	-9	-6	1	-4.5	.	3
COc1ccc(-n2c(=S)[nH]c3c(oc4ccccc43)c2=O)cc1
→ .	.	.	.	-2	-10	2	-2.1	.	93*
O=C(Nc1cn(-c2ccccc2)nc1-c1cccs1)c1ccco1
→ .	.	.	.	28	1	-7	-1.6	.	8
CCC1=C(C(=O)OC)C(c2cc(OC)ccc2OC)C(C#N)=C(N)O1 (stereo not given)
→ .	.	.	.	2	-6	-4	-4.3	.	2
Cc1nn(-c2ccccn2)c2c1-c1nc(N)ncc1CC2
→ .	.	.	.	4	-13	-13	-0.7	.	-12
c1ccc2c(c1)[nH]c1c(NCC3CCCO3)ncnc12 (stereo not given)
→ .	.	.	.	5	19	8	8.1	.	82*
O=c1cc(-c2ccc(O)c(O)c2)oc2cc(O)c([C@@H]3O[C@H](CO)[C@@H](O)[C@H](O)[C@H]3O)c(O)c12
→ 0	5	-3.8	i	.	.	-2	.	-1.2	99*
O=C(Cc1ccccc1)NC1(Cc2ccc(O)cc2)CCCCC1
→ -10	-10	1.0	i	2	0	-3	-2.5	-1.9	30
CSc1nc2c(cnn2-c2ccc(C)c(C)c2)c(=O)[nH]1
→ 6	7	-2.6	i	-9	-1	.	-1.8	-6.6	-21
CSc1ccc(S(=O)(=O)N2CCC(C(=O)N3CCOCC3)CC2)cc1
→ 6	7	0.9	i	-3	6	-6	7.6	0.1	-1
Cc1nn(C2CCS(=O)(=O)C2)c(C)c1CN(C)C(=O)c1cccc(Cl)c1 (stereo not given)
→ 7	10	-1.8	i	.	.	-4	.	-1.4	8
Cc1cc(C)cc(N(CC(=O)Nc2ccc(Br)cc2)S(=O)(=O)c2c(C)[nH]c(=O)[nH]c2=O)c1
→ -4	-30	12	i	5	5	-3	4.2	1.2	-1
COc1ccc(NC(=O)c2ccccc2NS(C)(=O)=O)cc1OC
→ -2	-4	-0.2	.	-6	-14	7	-0.9	.	-29
COC(=O)NCc1ccc(Cl)c(Cl)c1
→ 5	9	-3.4	.	-8	-13	4	-4.5	.	-9
O=C(COc1ccccc1F)NC1CCN(Cc2ccccc2)CC1
→ .	.	.	.	-9	23	-3	0.1	.	-8
CCOC(=O)c1ccc(NC(=O)c2nc[nH]c2C(=O)NCCCCCNC(=O)OC(C)(C)C)cc1
→ 2	7	-6.5	i	-1	-20	27	1.7	0.2	-2
CCC1c2ccc(C)n2CCN1C(=O)Nc1ccc(F)cc1 (stereo not given)
→ .	.	.	.	0	7	-7	5.2	.	-2
COc1ccc(NC(=O)N(Cc2ccc(C)cc2)Cc2ccccn2)c(OC)c1
→ -3	-8	6.2	i	5	13	-5	-0.3	-3.9	.
O=C(Cn1c(=O)cnc2ccccc21)N1CCN(S(=O)(=O)c2ccccc2Br)CC1
→ 1	-1	-1.4	i	-1	-2	5	.	-1.6	4
CCOc1cc2[nH]c(=S)n(CCc3ccc(OC)c(OC)c3)c(=O)c2cc1OCC
→ .	.	.	.	-3	-52	56	-3.6	.	-1
Nc1ccc2nc(-c3ccccn3)[nH]c2c1
→ .	.	.	.	-4	11	25	0.8	.	.
CCOC(=O)CSc1nnc(Cn2nnc(-c3ccccc3)n2)n1C
→ .	.	.	.	-6	-3	-3	-1.3	.	-5
COc1ccc(C(NC(=O)C2CCCCC2)c2c(O)ccc3ccccc23)cc1 (stereo not given)
→ 8	7	4.8	i	-10	31	4	1.2	2.7	-18
Cc1cccc(CNS(=O)(=O)c2ccc(-c3ccc(=O)[nH]n3)s2)c1
→ -4	3	1.4	i	7	-18	-1	-0.3	-1.2	-3
Nc1c(-c2ccccc2)nnn1Cc1ccccc1
→ -1	-2	-1.4	i	1	-7	-8	-3.8	3.6	-6
CC(=O)c1cc(-c2ccccc2)n(CC(=O)Nc2ccc(C)c(C)c2)c1C
→ 10	16	0.1	i	-2	-3	10	-0.9	-6.4	-2
CCCCC(=O)Nc1nnc(S(=O)(=O)N2CCCc3ccccc32)s1
→ -2	8	2.1	i	-2	-2	-5	1.9	-1.7	.
CCOC(=O)C1CCCCN1Cc1cc(OC)ccc1OC (stereo not given)
→ .	.	.	.	-15	3	-12	1.6	.	-19
O=C(CCC1CCCN(C(=O)c2ccc3cc[nH]c3c2)C1)NCc1ccc(F)c(F)c1 (stereo not given)
→ -18	-16	-0.5	i	-25	6	-10	4.5	-1.4	-19
Cc1onc(-c2ccccc2)c1C(=O)NC(=S)NNC(=O)c1cccnc1
→ -32	-32	-23	i	100*	-18	1	5.0	-12	17
CCc1cccc2c(C(=O)COC(=O)c3cccc(S(=O)(=O)N(C)C4CCCCC4)c3)c[nH]c12
→ .	.	.	i	4	11	-3	-2.5	-10	.
CC(C)(C)c1ccc(COn2c(=O)c(-c3ccco3)[n+]([O-])c3ccccc32)cc1
→ .	.	.	.	-12	9	-1	6.5	.	-3
CC(C)OCCCn1c(=O)c2ccccc2n2c(CCC(=O)NCc3ccccn3)nnc12
→ 4	9	-1.5	i	0	-11	5	-0.4	-6.3	-5
Oc1ccc(CN2CCCCC2)nc1-c1ccccc1
→ .	.	.	.	-5	-4	0	7.0	.	6
CC1CCCN(S(=O)(=O)c2ccc(N(C(=O)c3cnccn3)C(C(=O)NC3CCCCC3)c3cccs3)cc2)C1 (stereo not given)
→ .	.	.	.	20	19	4	-1.7	.	-36
Cn1ncc(Br)c1C(=O)NC1CCCCCCC1
→ 9	8	1.5	i	-8	7	.	-1.3	-1.3	.
COc1ccc(NC(=O)CSc2nc3[nH]ncc3c(=O)n2-c2ccccc2OC)cc1OC
→ .	.	.	.	23	-1	.	1.6	.	-16
Cc1cc(C)c2sc(N)nc2c1
→ 3	-1	2.0	i	-14	.	-2	.	-0.2	43
CCC(CO)Oc1cc(NCc2ccccc2)c2ncn(C3CCCC3)c2c1 (stereo not given)
→ -3	-3	1.7	i	.	.	-5	.	.	15
COc1ccc(C(=O)C2CCCN(Cc3cnc(N4CCOCC4)s3)C2)cc1F (stereo not given)
→ -2	-4	-3.0	i	-8	38	0	-1.1	9.0	.
COc1cc(/C=N/N=C(\N)c2nonc2N)cc(OC)c1O
→ -1	-3	-3.2	i	10	-4	-1	6.2	-1.2	.
COc1ccc(NC(=O)Nc2ccccc2)cc1S(=O)(=O)N1CCCCC1
→ -25	-28	0.8	i	1	7	-1	1.4	2.0	-10
Cc1nnc(SCc2ccc(Cl)cc2)n1CC1CCCO1 (stereo not given)
→ .	.	.	.	6	-5	-8	-0.6	.	-22

In the list so far, these contain a tert-butyl group:
Each structure is followed by: rRNA inh HTS	rRNA inh HTS OD600	rRNA inh HTS RFP	FGF22 binding	Calb FLC	T cruzi repl	Beta apoptosis	RanGTP-Impb inh	MLL AF4-AF9 inh	ALR inh
CCOC(=O)c1ccc(NC(=O)c2nc[nH]c2C(=O)NCCCCCNC(=O)OC(C)(C)C)cc1
→ 2	7	-6.5	i	-1	-20	27	1.7	0.2	-2
CC(C)(C)c1ccc(COn2c(=O)c(-c3ccco3)[n+]([O-])c3ccccc32)cc1
→ .	.	.	.	-12	9	-1	6.5	.	-3
